Screens as filed in PubChem.
Sfp PPTase inh: qHTS Assay for Inhibitors of Bacillus subtilis Sfp phosphopantetheinyl transferase (PPTase); 4'-phosphopantetheinyl transferase ffp (Bacillus subtilis), Q9F4F7; Biochemical Sfp PPTase activity, qHTS; Potency, µM, for inactives: max response, negative = inhibition, hits mostly inhibitors; 310,000 compounds, 3.5% hits; active = well fitted inhibition curve with a large enough effect; inconclusive = small, poorly fitted or top-dose-only effect, or another doubt; inactive = no such curve, though single readings can be large or run the other way;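 note: the enzyme is Sfp with the accession as filed and its product quenches rhodamine fluorescence; potency is the fitted concentration of half-maximal effect; 0% = enzyme reaction without inhibitor and -100% = no enzyme wells; top concentration of the series not given in the record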
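Reaction rates are the 30-min fluorescence difference (ex 525, em 598 nm) in wells containing 15 nM Sfp, 5 uM rhodamine-CoA and 12.5 uM BHQ-2-YbbR at pH 7.6 with 10 mM MgCl2.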
ClpP mod: qHTS Assay for Activators of ClpP. ATP-dependent Clp protease proteolytic subunit (Bacillus subtilis (strain 168)), P80244. 340,000 compounds, 1.9% hits. Potency, µM (doses to about 57.5 µM), for inactives: at the top dose activity change, negative = active. AID 651965, 2013. purified B. subtilis ClpP, FRET peptide cleavage, 20 min; active = well fitted falling curve with a large enough effect; inconclusive = small, poorly fitted or top-dose-only effect; inactive = no such curve, though single readings can be large or run the other way; note: potency is the fitted concentration of half-maximal effect; the source files actives as falling curves though it sought activators and does not explain the sign; nearly all actives have a fitted effect of over 65% in size; many hits overshoot -100%
Target sequence (P80244 whole entry, looked up): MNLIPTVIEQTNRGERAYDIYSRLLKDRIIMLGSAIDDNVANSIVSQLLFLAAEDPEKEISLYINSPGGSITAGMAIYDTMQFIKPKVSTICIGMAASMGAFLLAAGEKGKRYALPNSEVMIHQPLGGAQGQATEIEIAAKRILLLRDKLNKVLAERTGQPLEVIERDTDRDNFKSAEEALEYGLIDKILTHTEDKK
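ClpP 10 microg/mL final, pH 8 Tris/KCl buffer with BSA, glycerol, Tween-20; compound pinned in; FRET-FV substrate; RT 20 min; Ex320/Em430; ΔFRET vs ADEP 5.8 microM, DMSO, no enzyme.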
gsp antag: qHTS for Antagonists of gsp, the Etiologic Mutation Responsible for Fibrous Dysplasia/McCune-Albright Syndrome: qHTS | gsp-mutant cells, cAMP HTRF, 30 min; control for the full effect not named in the record | Potency, µM (doses to about 76.9 µM), for inactives: at the highest dose activity change, negative = inhibition, actives largely listed as inhibitors | 340,000 compounds, 0.4% hits | AID 624288, 2012; active = falling curve of any shape with a large fitted effect; inconclusive = falling curve, mostly with a smaller effect; inactive = flat or rising curve; cell line not stated here;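 note: intracellular cAMP measured with PDE inhibitor Ro 20-1724 present during compound exposure; potency is the fitted concentration of half-maximal effect; % is set by controls: 0 for no effect and ±100 for the full control effect; nearly all actives have a fitted effect of over 65% in size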
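Cells in G418 medium, seeded 16-24 h, 37C; buffer exchange to DPBS + 1 mM CaCl2, 0.5 mM MgCl2, 0.05% BSA; cpds in DMSO + […] (300 uM stock), 30 min 37C; HTRF cAMP detection.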
TRPV1 potentiator: HTS Assay for Compounds that Act as Potentiators of the Vanilloid Receptor 1. Transient receptor potential cation channel subfamily V member 1 (Homo sapiens), Q8NER1. TRPV1-expressing cells, Fluo-8 calcium influx, capsaicin EC20 potentiation; host cell line not named in the record; control for the full effect not named in the record. potentiation, % at 8.33 µM. 320,000 compounds, 0.02% hits; active means potentiation above 80%; inconclusive means 30% to 80%; inactive means below 30%; note: 0% is about no effect
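Cells expressing TRPV1 were dye-loaded with Fluo-8 and read kinetically: 10 s baseline, 3 min after compound (agonist portion), then 2 min after EC20 capsaicin (allosteric enhancer portion). Calcium-bound dye fluorescence at 480/520 nm.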
Menin-MLL FL inh: qHTS Assay for Inhibitors Targeting the Menin-MLL Interaction in MLL Related Leukemias: Competition With Fluorescein Labeled MLL-derived Peptide. Fluorescence polarization, fluorescein-MLL peptide displacement from menin. FP activity change, % at 61.4 µM. 290,000 tested, under 10 active; inconclusive = falling polarisation curve, or a change in total fluorescence; inactive = total fluorescence flat and polarisation flat or rising; no compound was filed as active; the % refers to the polarisation; negative = inhibition;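 note: % of control where 0% means no effect; inhibitors lower the polarisation; unlabelled MLL peptide was the positive control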
TRPML1 blocker: qHTS for Inhibitors of the Human Mucolipin Transient Receptor Potential 1 (TRPML1); 390,000 compounds, 0.02% hits; TRPML1-inducible cells, Ca2+ dye fluorescence, FDSS; hits give low values; inhibition of EC80 agonist-evoked calcium signal; Mucolipin-1 (Homo sapiens), Q9GZU1; activity change, negative = inhibition, % (test concentration not listed); in the data active means activity change below about -50%; inconclusive means about -30% to -50%; inactive means above about -30%;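 note: stimulus is agonist 54-4 at its EC80 concentration; % is set by controls: 0 for no effect and ±100 for the full control effect; compound concentration not given in the record; the text of the record puts the active cut at -80%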
Target sequence (Q9GZU1 whole entry, looked up): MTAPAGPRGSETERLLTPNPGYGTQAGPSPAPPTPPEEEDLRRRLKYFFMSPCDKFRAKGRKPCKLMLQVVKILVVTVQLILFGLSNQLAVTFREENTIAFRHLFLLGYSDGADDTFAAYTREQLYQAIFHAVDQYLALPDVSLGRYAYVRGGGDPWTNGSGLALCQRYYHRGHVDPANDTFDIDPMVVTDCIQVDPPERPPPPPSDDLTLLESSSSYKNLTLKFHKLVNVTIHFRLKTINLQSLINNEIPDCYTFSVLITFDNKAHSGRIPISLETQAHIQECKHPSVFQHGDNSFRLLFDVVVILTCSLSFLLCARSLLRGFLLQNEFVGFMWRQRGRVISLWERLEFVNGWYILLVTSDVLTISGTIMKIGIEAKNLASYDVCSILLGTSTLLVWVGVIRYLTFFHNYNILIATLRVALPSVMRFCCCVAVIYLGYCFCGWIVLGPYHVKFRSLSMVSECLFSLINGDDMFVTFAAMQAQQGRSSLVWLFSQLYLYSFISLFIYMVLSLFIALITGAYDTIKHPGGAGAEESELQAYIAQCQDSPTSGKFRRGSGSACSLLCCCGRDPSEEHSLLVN
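TRPML1-DL cells, Tet-induced overnight (~16 h, 37 °C) at 1,500 cells/well, were loaded with Ca8 no-wash dye plus quencher for 45-90 min at room temperature. Compounds were pinned during FDSS kinetic reading; agonist 54-4 at EC80 (4 uM final) then added.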
gsp agonist: qHTS for Agonist of gsp, the Etiologic Mutation Responsible for Fibrous Dysplasia/McCune-Albright Syndrome: qHTS; 340,000 compounds, 0.13% hits; Potency, µM (top dose mostly 76.9 µM), without a hit: at the top dose activation (cAMP increase), usual class: activators; AID 624287, 2012; gsp mutant cells, cAMP HTRF, 30 min; control for the full effect not named in the record; active = well fitted activation curve with a large enough effect; inconclusive = small, poorly fitted or top-dose-only effect, or another doubt; inactive = no such curve, though single readings can be large or run the other way; cell line not stated here;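 note: phosphodiesterase inhibitor Ro 20-1724 added with compounds to block cAMP breakdown; potency is the fitted concentration of half-maximal effect; nearly all actives have a fitted effect of over 60% in size; about a fifth of the inactives were tested at one dose only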
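Cells in DMEM/10% FBS with G418 were pretreated with compounds in DMSO plus […] (300 uM stock) for 30 min at 37C. cAMP was measured by HTRF (cAMP-d2 plus anti-cAMP antibody-K) after 30 min at room temperature.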
The depositor's hits bear a star; ? = inconclusive; / = no result given; & = joins results of further samples; [ ] = another dose, or the depositor's remark.

SMILES	Sfp PPTase inh	ClpP mod	gsp antag	TRPV1 potentiator	Menin-MLL FL inh	TRPML1 blocker	gsp agonist
O=C(CN1C(=O)CSc2ccc(S(=O)(=O)N3CCOCC3)cc21)NCc1ccc(Cl)cc1	0.0%	0.7%	-11.4%	-4.2	-0.2	19.9	-57.6%[inhibitor]
N#C/C(=C\c1ccc(O)cc1)c1nc2ccccc2o1	4.2%	/	?	12.2	?	-20.4	0.6%[15.4 µM]
Cc1cc(C)c(C(=O)N(CCN(C)C)CC2CCCN(Cc3ccccc3F)C2)o1 (stereo not given)	2.3%	-3.4%	9.0%	1.8	14.6	-0.6	-1.8%[15.4 µM]
Cc1ccsc1C(=O)N1CCCC(N2CCN(c3cccc(Cl)c3)CC2)C1 (stereo not given)	5.7%	0.5%	-8.3%	-21.8	/	-3.9	7.0%
O=C1CC[C@@H]2CC3(C[C@@H]4CCN1[C@H]24)Nc1ccccc1NC3=NC1CCCCC1 (stereo not given in full)	/	2.0%	2.0%	/	/	1.8	/
CN(CC(=O)Nc1cccc(C(F)(F)F)c1)C1=NS(=O)(=O)c2ccccc21	/	-2.8%	13.8%	/	/	6.0	-2.6%[15.4 µM]
Cc1ccc2nc(N3CCN(S(=O)(=O)c4ccc5c(c4)OCCO5)CC3)c(C#N)cc2c1	20.6%	-9.7%	-22.9%	11.8	9.0	11.6	21.1%
Cc1ccc(NC(=O)c2ccccc2N(C)S(C)(=O)=O)cc1C	12.2%	0.8%	4.1%	0.7	2.6	-12.9	-7.4%
O=C(CN(Cc1ccccc1)C(=O)CNS(=O)(=O)c1ccc(Cl)cc1)NCC1CCCO1 (stereo not given)	24.7%	/	/	0.8	/	?	21.5%[15.4 µM]
O=C(NCCOCc1ccc(Cl)cc1)c1ncn[nH]1	11.5%	-3.4%	1.7%	-12.6	/	-20.4	-5.9%
Cc1cc(C)cc(NC(=O)CN2CCN(CCN=CC3=C(O)CC(c4ccc(Cl)cc4)CC3=O)CC2)c1 (stereo not given)	9.6%	0.7%	-17.4%	5.9	-3.6	9.0	-6.1%
CS(=O)(=O)N(CC(=O)Nc1ccccc1-c1ccccc1)c1cccc(F)c1	12.2%	-0.8%	?	-2.6	-0.1	-23.5	-0.9%
CCCC/C(C)=N/NC(=O)NC1CCCCC1	1.7%	1.1%	16.0%	-2.6	2.7	-17.4	-30.6%[inhibitor]
NS(=O)(=O)c1cccc(NC(=S)NCc2ccc3c(c2)OCO3)c1	-20.4%	/	-11.3%	2.6	-1.0	-12.5	-1.6%[15.4 µM]
O=C(NN=C1CCCCCC1)c1c[nH]c2ccccc12	13.0%	-3.3%	0.5%	?	0.4	1.0	14.4%
O=c1cc(O)c(-c2ccc(Cl)cc2)c(Cl)[nH]1	-2.3%	-6.8%	3.2%	12.5	3.2	-8.1	?
O=C1c2cc(F)ccc2OC2(CCNCC2)C12CC(c1ccccc1)=NO2 (stereo not given)	-13.4%	-2.4%	-5.5%	-37.4	0.3	5.9	3.9%
COc1ccc(NC(=O)C(NC(C)=O)C(=O)NCc2ccccc2Cl)cc1 (stereo not given)	18.0%	1.0%	7.3%	/	1.8	5.3	14.2%
O=C(CSCc1c(Cl)cccc1Cl)NCc1ccco1	16.4%	-17.0%	1.6%	7.9	0.2	6.4	-28.0%
COc1cc(/C=C2\SC(=O)NC2=O)ccc1Oc1ccc([N+](=O)[O-])cc1[N+](=O)[O-]	56.2µM*	/	-31.1%	8.7	11.1	-5.4	-0.2%[15.4 µM]
Cc1ccc(Nc2cc(C)c3c(O)cccc3n2)cc1C	50.1µM*	?	1.8%	-7.5	3.4	/	11.0%
Cc1ccc(NC(=O)COc2ccccc2CNC(C)(C)CC(C)(C)C)cc1	?	0.8%	8.3%	-0.1	2.3	-8.6	10.9%
Nc1ccc(Sc2ccc([N+](=O)[O-])cc2)cc1	5.5%	/	3.8%	-8.7	4.7	-10.2	-24.7%[15.4 µM]
N/C(=N\OC(=O)c1ccccc1)c1ccn[nH]1	8.5%	0.3%	9.5%	-2.5	/	-3.7	4.4%
Cn1c(SCC(=O)NCC2CCCO2)nnc1-c1ccc(S(=O)(=O)N2CCCC2)cc1 (stereo not given)	6.4%	-17.5%	-1.9%	-0.2	1.9	-0.4	18.3%
Later entries.
SMILES	Sfp PPTase inh	ClpP mod	gsp antag	TRPV1 potentiator	Menin-MLL FL inh	TRPML1 blocker	gsp agonist
COc1cc(OC)cc(-c2ncc3ccccn23)c1	-11.1%	25.1µM*	-1.4%	18.1	0.9	-13.3	?
COC(=O)c1cccc(S(=O)(=O)N2CCC(C)CC2)c1	20.6%	-2.6%	-10.0%	-24.2	3.7	-9.9	10.8%
O=C(NCCc1ccccn1)c1cccnc1Oc1ccc(Cl)cc1	9.6%	-0.9%	11.2%	?	-1.0	15.2	0.0%
CCC(C)NC(=O)C1(O)c2cc(Br)ccc2NC(=O)N1c1cccc(OC)c1 (stereo not given)	11.4%	-0.7%	9.8%	11.0	-2.4	-10.8	28.3%
O=C(NCc1cccc(OC(F)(F)F)c1)C1CCC(=O)N(Cc2cccc(F)c2)C1 (stereo not given)	13.5%	0.7%	3.7%	-15.3	2.6	-2.3	22.5%
CC(=O)OC(C(=O)n1nc(C)cc1C)c1ccccc1 (stereo not given)	13.6%	-0.3%	-4.4%	-9.2	0.0	-6.9	-2.4%
CCN(c1ccc(OC)cc1)S(=O)(=O)c1nnc(NC(=O)c2ccccc2Cl)s1	18.5%	-1.9%&0.3%	?	7.0	/	-16.0&-28.3	5.3%
Cn1c(SCc2ccc(Cl)cc2)nnc1-c1ccc2nonc2c1	19.6%	42.7%	-3.5%	-5.4	2.2	-1.9	11.2%
CC(OC(=O)C1CCCCC1)c1nc2ccccc2[nH]1 (stereo not given)	4.8%	2.1%	17.4%	-2.3	4.0	0.0	?
CC[n+]1ccc(/C=C2\Sc3ccccc3N2CCCS(=O)(=O)[O-])c2ccccc21	-10.5%	/	-3.5%	-1.0	?	1.7	12.5%[15.4 µM]
O=C(NCC(=O)N(Cc1ccccc1)C(C(=O)NC1CCCC1)c1ccncc1)c1ccco1 (stereo not given)	-8.5%	0.7%	-0.4%	29.0	4.5	11.6	-14.6%
c1ccc(-c2cnnc(N3CCCCC3)n2)cc1	-4.4%	1.1%	3.9%	-3.1	1.6	-6.6	?
CC(=O)CCc1ccc(OC(=O)c2cccnc2)cc1	23.0%	5.9%	-2.9%	-5.8	0.1	-0.6	-30.3%[inhibitor]
COc1ccc2c(c1)c1ncn(CCN3CCNCC3)c(=O)c1n2C	-2.2%	2.24µM*	-3.0%	8.4	2.1	-1.3	5.8%
CCCCCN(C(=O)CCC(=O)OCc1ccccc1C)c1c(N)n(CCCC)c(=O)[nH]c1=O	/	-2.6%	3.4%	-5.6	/	10.8	?
Cc1cc(-c2ccc(Br)s2)nc(-n2cccc2)n1	3.7%	/	4.3%	6.1	-0.4	0.1	29.5%[15.4 µM]
COc1c(C)cc(Br)cc1C(=O)Nc1ccccc1N1CCN(C(=O)c2ccccc2)CC1	19.5%	17.8µM*	-31.3%	14.6	0.0	9.9	9.0%[15.4 µM]
COc1cccc(C(=O)COC(=O)CCCC(=O)NC2CCCCC2)c1	-2.3%	-18.2%	-3.7%	-8.2	4.5	31.5	-36.2%[inhibitor]
Cc1ccc(S(=O)(=O)/N=C(\Nc2cccc(C)c2)Nc2nc(C)cc(C)n2)cc1	12.4%	0.5%	-4.4%	-3.9	7.1	29.4	-38.7%[inhibitor]
O=C(CCCCC(=O)NCCc1ccccc1)NCCc1ccccc1	-3.2%	0.8%	6.8%	5.9	0.2	-20.4	2.9%[15.4 µM]
Cc1c(C(=O)OC2CCCCC2)[nH]c2c1C(=O)CC(C)(C)C2	12.5%	0.7%	-3.2%	-4.5	-1.0	6.5	-1.7%
CCN1CCN(C(=S)Nc2ccc3nc(N4CCN(CC)CC4)cc(C)c3c2)CC1	5.9%	?	2.2%	9.2	3.1	-1.1	-14.7%
O=C(O)CCn1c(-c2ccccn2)nc2ccccc21	-20.9%	/	5.8%	2.5	-2.9	-17.4	-2.8%
CCOC(=O)c1c(NC(C)=O)sc2c(OCCN(CC)CC)c(Br)ccc12	7.4%	3.2%	9.3%	-0.4	1.6	-13.2	17.5%
Cc1nc2ncnn2c(C)c1Cc1ccc(Cl)cc1	9.3%	-0.1%	8.9%	-10.0	2.0	-11.7	14.7%
(next part)
SMILES	Sfp PPTase inh	ClpP mod	gsp antag	TRPV1 potentiator	Menin-MLL FL inh	TRPML1 blocker	gsp agonist
CCc1ccccc1NC(=S)N(CCCN1CCOCC1)Cc1ccccn1	2.7%	0.6%	-5.7%	-18.5	/	-3.3	-3.5%[15.4 µM]
O=c1cc(CSc2ccc(Cl)cc2)nc(-c2ccncc2)[nH]1	3.1%	/	-15.5%	?	2.0	18.6	-35.4%[inhibitor]
S=C1SCN(Cc2ccco2)CN1Cc1ccco1	?	/	3.9%	-5.0	-0.3	-17.9	14.5%
COC(=O)C=C1CCC2C3CC(F)C4(O)CC(=O)CCC4(C)C3C(=O)CC12C (stereo not given)	/	/	-4.0%	/	/	0.8	-9.7%
CSc1nc2ccc(S(=O)(=O)NC3CCCCC3)cc2s1	3.6%	2.0%	-15.6%	-16.7	-2.5	-5.5	-10.6%
COc1ccc(Cl)c(Cn2c(NCc3ccco3)nc3c2c(=O)n(C)c(=O)n3C)c1	-15.6%	3.3%	3.4%[15.4 µM]	-11.5	5.1	13.5	-2.8%
